Sa ugtP lethal = compounds lethal to S. aureus RN4220 ugtP deletion mutant. OD600 growth, 16 h; some inactives read as strong as hits. growth inhibition, % (concentration not given with the values). hit rate 0.54% among 330,000;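 active = z-score under -3 and OD600 up to 0.15 on both plates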;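 also: plate controls were untreated wells for no effect and antibiotic for full effect; wells of about 80 µL received 100 nL stock; the first replicate is given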
PrP 5UTR inh = suppresses PrP 5' UTR mRNA reporter expression. cell-based PrP 5' UTR mRNA reporter, plate reader. inhibition, % (concentration not given with the values). hit rate 0.35% among 340,000;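 active = every replicate at 50% or more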;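 also: 0 = median of the neutral control wells; tested in H4 reporter cells; numbers are from one replicate; inactives centre near -14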
Bead autofluor = counter-screen for toxin protease inhibitors: compound fluorescence. compound autofluorescence counterscreen, microsphere flow cytometry; hits give high values. fluorescence intensity (no concentration beside the values). hit rate 3.1% among 360,000. AID 624483;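 active = at least 3 SD above the mean of all compounds, about 16000 in these data; inconclusive = too few beads counted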;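 also: 100 nL of 1 mM stock went into each well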
Mtb hypoxia rep = inhibitors of hypoxia-regulated fluorescent reporter in Mycobacterium tuberculosis; M. tuberculosis hypoxia-regulated fluorescent reporter, fluorescence; hit rate 0.1% among 300,000; fluorescence inhibition, % (concentration not given with the values);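 active = 35 to 45% if threefold the growth effect, above 45% if 1.5-fold the growth effect; inactive = the rest, general growth blockers included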;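 also: wells of about 50 µL received 100 nL stock; 0% = vehicle wells and 100% = reference inhibitor wells; whole bacteria with a GFP reporter of the hypoxia response; strong numbers were not always called active; many hits fall short of the cut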
Sa RN4220 lethal = kills Staphylococcus aureus RN4220. inhibition, % (concentration not given with the values). hit rate 0.33% among 330,000. AID 1259311. S. aureus RN4220 growth, OD600, 16 h;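 active = z-score of -3 or lower and OD600 up to 0.18 on both plates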;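 also: plate controls were untreated cells for no effect and reference antibiotic for full effect; stock transfer was 100 nL into about 80 µL; one replicate is shown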
BJeLR lethal = kills HRASV12-expressing BJeLR cells | BJeLR (HRASV12) viability, CellTiter-Glo ATP luminescence, 48 h; reference of the scale not given here | inhibition, % (test concentration not listed) | hit rate 0.17% among 300,000 | AID 1554;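 active = replicate mean above 50%; inconclusive = above 50% but judged a plate artefact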;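 also: 50 nL library stock added to about 25 µL; numbers are from one replicate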
Mtb hypoxia rep growth = second read-out of Mtb hypoxia rep, no call of its own (marks repeat the call); growth inhibition, %; measured here: M. tuberculosis growth (absorbance);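 0% = vehicle and 100% = reference antibiotic; read after six days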
* = called active by the depositor; ? = inconclusive; . = no result given.

The opening 9 compounds, ahead of the listing:
(1) N[C@@H](Cc1ccccc1)C(=O)N1C[C@H]2C[C@@H](C1)c1cccc(=O)n1C2
(2) CC(C)(C)C(=O)ON=C(N)Cc1ccc(-c2csnn2)cc1
(3) Cc1nnc(SCc2cc(=O)[nH]c(/N=C(\N)Nc3ccccc3Sc3ccccc3)n2)s1
(4) CCN(CC(=O)Nc1ccc2c(c1)OCCO2)CC(=O)Nc1ccc(C)c(S(=O)(=O)N(C)C)c1
(5) Cc1ccccc1N1CCN(C2CCCN(C(=O)COc3ccccc3)C2)CC1 (stereo unspecified)
(6) O=C(CSc1nccc(=O)[nH]1)N1N=C2/C(=C/c3ccco3)CCCC2C1c1ccco1 (stereo unspecified)
(7) COc1ccc(/C=C/C(=O)O)cc1COc1ccccc1C
(8) Cc1ccc(NC(=O)CSc2sc3c(O)cc(=O)[nH]c3c2C#N)c(F)c1
(9) CC(=O)NC(CC(=O)OCc1ccc([N+](=O)[O-])cc1)c1ccccc1 (stereo unspecified)

Compound	1	2	3	4	5	6	7	8	9
Sa ugtP lethal	7	-2	.	-2	2	-1	2	.	-1
PrP 5UTR inh	67*	.	-17	4	1	-8	-37	-29	-9
Bead autofluor	4077	.	4717	3952	5197	3461	2603	5249	4193
Mtb hypoxia rep	.	9	.	3	-7	14	2	.	2
Mtb hypoxia rep growth	.	14	.	3	-2	7	5	.	6
Sa RN4220 lethal	4.5	0.3	.	6.2	1.4	7.8	4.5	.	1.9
BJeLR lethal	-4	.	-3	.	-4	3	1	-1	-6

All compounds of this part, repeating the preview:
(1) N[C@@H](Cc1ccccc1)C(=O)N1C[C@H]2C[C@@H](C1)c1cccc(=O)n1C2
(2) CC(C)(C)C(=O)ON=C(N)Cc1ccc(-c2csnn2)cc1
(3) Cc1nnc(SCc2cc(=O)[nH]c(/N=C(\N)Nc3ccccc3Sc3ccccc3)n2)s1
(4) CCN(CC(=O)Nc1ccc2c(c1)OCCO2)CC(=O)Nc1ccc(C)c(S(=O)(=O)N(C)C)c1
(5) Cc1ccccc1N1CCN(C2CCCN(C(=O)COc3ccccc3)C2)CC1 (stereo unspecified)
(6) O=C(CSc1nccc(=O)[nH]1)N1N=C2/C(=C/c3ccco3)CCCC2C1c1ccco1 (stereo unspecified)
(7) COc1ccc(/C=C/C(=O)O)cc1COc1ccccc1C
(8) Cc1ccc(NC(=O)CSc2sc3c(O)cc(=O)[nH]c3c2C#N)c(F)c1
(9) CC(=O)NC(CC(=O)OCc1ccc([N+](=O)[O-])cc1)c1ccccc1 (stereo unspecified)
(10) CC1CN(S(=O)(=O)c2ccc(C(=O)N(CCCN(C)C)c3nc4c(Cl)cccc4s3)cc2)CC(C)O1 (stereo unspecified)

Compound	1	2	3	4	5	6	7	8	9	10
Sa ugtP lethal	7	-2	.	-2	2	-1	2	.	-1	8
PrP 5UTR inh	67*	.	-17	4	1	-8	-37	-29	-9	-11
Bead autofluor	4077	.	4717	3952	5197	3461	2603	5249	4193	4857
Mtb hypoxia rep	.	9	.	3	-7	14	2	.	2	6
Mtb hypoxia rep growth	.	14	.	3	-2	7	5	.	6	-6
Sa RN4220 lethal	4.5	0.3	.	6.2	1.4	7.8	4.5	.	1.9	1.3
BJeLR lethal	-4	.	-3	.	-4	3	1	-1	-6	4

(11) COCCNC(=O)CN1C(=O)NC(c2ccccc2)(c2ccccc2)C1=O
(12) Cc1nc2c(C)cccn2c1C(O)=C1C(=O)C(=O)N(CCN2CCOCC2)C1c1ccncc1 (stereo unspecified)
(13) C/C(=N\NC(=O)c1cccnc1)c1cc2ccccc2o1
(14) CN1CCN(c2ccc(NC(=O)c3sc4ccccc4c3Cl)cc2)CC1
(15) Cc1nc2cc(NC(=O)N3c4ccccc4CC3C)ccc2n1C (stereo unspecified)
(16) CN(CC(=O)Nc1cccc(S(=O)(=O)N2CCOCC2)c1)CC(=O)Nc1ccc(Cl)c(C(F)(F)F)c1
(17) COc1ccc(-n2c(=O)c3ccccc3n(CC(=O)OCc3ccccc3)c2=O)cc1OC
(18) COc1ccc(C2=NN(CCC(=O)NC3CCC(C)CC3)C(=O)CC2)cc1 (stereo unspecified)
(19) COc1ccc(-c2cc(C(=O)N/N=C/c3ccc4c(c3)OCO4)c3ccccc3n2)c(OC)c1
(20) COc1cccc(CNC(=O)C(C)n2ccc3cc(S(=O)(=O)N4CCCC4)ccc32)c1 (stereo unspecified)

Compound	11	12	13	14	15	16	17	18	19	20
Sa ugtP lethal	4	1	.	-6	11	-5	10	5	.	-1
PrP 5UTR inh	-11	.	-12	-24	-16	-34	-24	-19	-17	-1
Bead autofluor	3940	.	4523	5039	8815	5321	4761	5518	3856	5794
Mtb hypoxia rep	3	10	.	-3	6	-1	-6	5	.	10
Mtb hypoxia rep growth	3	2	.	1	-1	-4	2	-2	.	1
Sa RN4220 lethal	3.1	7.0	.	80	3.8	-2.6	2.0	3.0	.	0.6
BJeLR lethal	-1	.	-7	10	.	1	-2	0	-3	-1

(21) Cc1cc(NC(=O)Cn2cnc3sc(C)c(-c4ccccc4)c3c2=O)no1
(22) CN(C)C(=O)CCc1ccc2c3c([nH]c2c1)[C@]1(C)[C@@H](C(=O)N2CCCCC2)C[C@H](CC(=O)NCCN2CCOCC2)C(=O)N1CC3
(23) N#Cc1c(NC(=O)C(=O)NCCCN2CCOCC2)sc2c1CCC2
(24) COc1ccc(Cl)cc1NC(=O)C(C)N(C)Cc1ccc(C(F)(F)F)cc1 (stereo unspecified)
(25) CC1CN(c2cc(=O)n(-c3cccc(Br)c3)c(=O)[nH]2)CC(C)O1 (stereo unspecified)
(26) Cc1cc(NC(=O)CSc2nnc(C)n2-c2ccccc2)no1
(27) Cc1nn(CC(=O)NCCc2cccs2)c(=O)c2nn(-c3ccccc3)c(C)c12
(28) CCCCSc1nc(O)cc(=O)n1CC
(29) COc1ccccc1NC(=O)c1ccc2c(c1)C(=O)N(Cc1ccco1)C2=O
(30) O=c1cc(-c2ccccc2Cl)oc2c(NS(=O)(=O)c3ccccc3C(F)(F)F)ccc(O)c12

Compound	21	22	23	24	25	26	27	28	29	30
Sa ugtP lethal	-5	7	-2	-15	-7	3	11	-71	-2	-36
PrP 5UTR inh	-18	6	-12	-10	-29	1	-14	-21	-17	10
Bead autofluor	2964	2820	5279	2274	5342	4113	3974	4094	6005	3785
Mtb hypoxia rep	13	-2	-5	4	3	2	-2	8	2	1
Mtb hypoxia rep growth	2	0	1	0	7	8	-4	9	8	9
Sa RN4220 lethal	8.6	1.6	-0.7	2.6	-9.9	0.0	3.6	1.1	2.3	-4.1
BJeLR lethal	0	.	3	5	3	12	-17	-3	.	-5

(31) N#Cc1nc(-c2ccc(OCc3ccc(Cl)cc3)cc2)oc1N1CCOCC1
(32) O=C(CNC(=O)C1CCCCC1)NC1CCCCC1
(33) CCOC(=O)C1=C(C)N(CCCC(=O)NCc2ccc3c(c2)OCO3)C(=O)NC1c1ccc(Br)cc1 (stereo unspecified)
(34) COc1ccc(-c2nc[nH]c2[N+](=O)[O-])cc1
(35) CCCNC(=O)c1ccc2nc(-c3ccccc3)c(-c3ccccc3)nc2c1
(36) CSc1cccc(NC(=O)C2CCCN2S(=O)(=O)c2ccc(Br)s2)c1 (stereo unspecified)
(37) COc1cccc(NC(=O)CN(C)C(=O)Cc2c(C)nc3ccccc3c2C)c1
(38) CC(=O)Nc1cccc(C(=O)NNC(=O)c2ccccc2-n2cccc2)c1
(39) CC(C)C[C@H]1CN=C(Nc2ccccc2)N1CCC1CCCCC1
(40) CSCCCNC(=S)Nc1cccc(S(=O)(=O)NC2=NCCC2)c1

Compound	31	32	33	34	35	36	37	38	39	40
Sa ugtP lethal	-25	9	8	5	3	-16	0	-1	.	10
PrP 5UTR inh	-4	-32	.	-5	-13	-14	-13	-13	3	-56
Bead autofluor	6821	3645	.	3240	3966	11266	8115	4062	4288	4282
Mtb hypoxia rep	-3	8	16	4	14	1	4	3	.	10
Mtb hypoxia rep growth	-9	8	0	-3	4	2	-8	1	.	7
Sa RN4220 lethal	2.6	-0.7	4.1	0.8	5.4	3.2	0.4	0.6	.	2.2
BJeLR lethal	-3	-4	.	-6	3	3	.	.	-11	-9

(41) C[C@H]1CN([C@@H](C)CO)C(=O)c2cc(NC(=O)CCN3CCOCC3)ccc2O[C@H]1CN(C)C(=O)Nc1ccc(F)cc1
(42) CC(C)(C)NC(=S)NCC1CC1
(43) CC1CCCCN1C(C(=O)O)c1ccccc1 (stereo unspecified)
(44) CN(CC(=O)Nc1cccc(F)c1)C(=O)/C=C/c1ccc(Br)s1
(45) CCN(CC1CCCO1)C(=O)CCc1nnc(CCc2ccc(OC)cc2)o1 (stereo unspecified)
(46) CN1C(=S)SC(N(O)C(=O)Nc2ccccc2)C1(C)C (stereo unspecified)
(47) Cc1oc(C(=O)O)cc1CSc1nnc(-c2ccccc2)n1C
(48) Cc1ccc(-n2c(=O)[nH]c3c(C(N)=O)nc(CC(C)C)nc32)cc1
(49) O=C(N/N=C/c1cn(-c2ccccc2)nc1-c1ccccc1)c1ccco1
(50) CCCCCOC(=O)Cc1c(O)c2ccccc2[nH]c1=O

Compound	41	42	43	44	45	46	47	48	49	50
Sa ugtP lethal	-3	2	-6	0	0	1	2	2	.	13
PrP 5UTR inh	-12	-14	-22	-1	-16	-7	9	-3	-31	-32
Bead autofluor	4086	5708	4777	10838	4550	4536	4124	3264	6038	4767
Mtb hypoxia rep	-1	4	10	9	5	12	5	9	.	.
Mtb hypoxia rep growth	7	10	16	-7	3	8	8	7	.	.
Sa RN4220 lethal	-2.6	1.2	4.0	1.4	-4.2	2.8	-1.1	2.4	.	5.7
BJeLR lethal	.	-1	-7	11	-6	-6	0	-1	3	-5

(51) CC(C)=C[C@@H]1C[C@H](C)[C@H]2CC[C@H](C)c3c(O[C@@H]4O[C@@H](C)[C@@H](O)[C@@H](O)[C@@H]4O)c(O)c(C)c1c32
(52) c1ccc(COc2cccc(CN3CCc4ccccc4C3)c2)cc1
(53) O=C(c1ccccc1)c1cnc(Nc2ccccc2Cl)s1
(54) COC(=O)c1cc(C)sc1NC(=O)C1C2C=CC(CC2)C1C(=O)O (stereo unspecified)
(55) CCn1c(=O)cc(OCC(=O)Nc2cccc(C)n2)c2ccccc21
(56) O=C(COC(=O)Cc1ccc(F)cc1)NC1CCS(=O)(=O)C1 (stereo unspecified)
(57) C=C(C)COc1ccc(-c2ncncc2-c2ccccc2OC)c(O)c1
(58) CCC(=O)N(Cc1ccco1)c1nc(-c2cc(OC)ccc2OC)cs1
(59) CN1CCN(CC(=O)N(Cc2c(C#N)c3ccccc3n2C)c2ccccc2)CC1
(60) O=C(O)c1c2c(nc3ccccc13)/C(=C/c1ccc(O)cc1)CCC2

Compound	51	52	53	54	55	56	57	58	59	60
Sa ugtP lethal	53	10	11	1	-6	-1	10	-7	8	1
PrP 5UTR inh	6	-4	-65	-10	-34	-2	-10	-30	-16	-7
Bead autofluor	2952	3704	21405*	2397	8665	?	3890	?	3733	4568
Mtb hypoxia rep	1	5	1	1	0	10	4	13	1	16
Mtb hypoxia rep growth	-7	1	-6	4	7	1	4	11	16	3
Sa RN4220 lethal	-5.4	-1.9	4.7	8.7	5.9	1.3	-0.4	6.9	1.8	2.4
BJeLR lethal	.	11	1	1	-5	-6	1	-3	-14	2

(61) Cc1ccc(CC2C(=O)N(c3nc(C)cc(C)n3)C(=O)C2C)cc1 (stereo unspecified)
(62) CC(c1ccccc1)N1CCn2c(nc3cc(NC(=O)c4cccs4)ccc32)C1 (stereo unspecified)
(63) Cc1cc(-c2ccccc2)nc(SCC(=O)N2CCCC2)n1
(64) CCOC(=O)C1CCCN(S(=O)(=O)c2ccc(S(N)(=O)=O)cc2)C1 (stereo unspecified)

Compound	61	62	63	64
Sa ugtP lethal	5	3	6	6
PrP 5UTR inh	-18	-30	-1	-5
Bead autofluor	4275	10054	4573	4757
Mtb hypoxia rep	-8	-2	6	5
Mtb hypoxia rep growth	1	-1	5	7
Sa RN4220 lethal	1.9	-3.6	5.5	3.8
BJeLR lethal	0	-5	6	-4

Bioassay records as filed in PubChem.
